Lassa entry inh: qHTS for Inhibitors of binding or entry into cells for Lassa Virus; Potency, µM (doses to about 37.9 µM), for inactives: at the highest dose activity change, negative = inhibition, hits mostly inhibitors; 300,000 compounds, 1.2% hits; Lassa virus pseudotype entry inhibition, cell reporter; control for the full effect not named in the record; active means well fitted inhibition curve with a large enough effect; inconclusive means small, poorly fitted or top-dose-only effect, or effect the other way; inactive means flat fitted curve, though single readings scatter; tested in HEK293 cells; also: % is scaled to controls: 0 for no effect and ±100 for the full control effect; nearly all actives have a fitted effect of over 50% in size; luciferase read-out
NS1 function inh: qHTS Assay for Inhibitors of Influenza NS1 Protein Function. 270,000 compounds, 0.4% hits. AID 2326, 2010. S. cerevisiae slowed by influenza A NS1, growth recovery by OD600. Potency, µM (series often up to 46.1 µM), without a hit: top-dose activity, positive = more growth; active means well fitted rising curve with a large enough effect; inconclusive means small, poorly fitted or top-dose-only effect; inactive means no such curve, though single readings can be large or run the other way; also: nearly all actives have a fitted effect of over 50% in size
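S. cerevisiae expressing influenza A NS1, grown in glucose, washed, then diluted 1:100 into pH 6.0 -URA galactose medium with 23 nl compound. Growth recovery read as OD600; NS1-free strain serves as control.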
Cruzain inh noDet: qHTS Assay for Promiscuous and Specific Inhibitors of Cruzain (without detergent) | 200,000 compounds, 2.3% hits | Potency, µM, for inactives: max response, negative = inhibition, usual class: inhibitors | Cruzipain (Trypanosoma cruzi), P25779 | AID 1476, 2009 | purified cruzain, Z-FR-AMC fluorescence, no detergent;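 also: plate controls were enzyme without inhibitor for no effect and buffer without enzyme for full effect; nearly all actives have a fitted effect of over 40% in size; top concentration of the series not given in the record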
Target sequence (P25779 123-467 limits assumed): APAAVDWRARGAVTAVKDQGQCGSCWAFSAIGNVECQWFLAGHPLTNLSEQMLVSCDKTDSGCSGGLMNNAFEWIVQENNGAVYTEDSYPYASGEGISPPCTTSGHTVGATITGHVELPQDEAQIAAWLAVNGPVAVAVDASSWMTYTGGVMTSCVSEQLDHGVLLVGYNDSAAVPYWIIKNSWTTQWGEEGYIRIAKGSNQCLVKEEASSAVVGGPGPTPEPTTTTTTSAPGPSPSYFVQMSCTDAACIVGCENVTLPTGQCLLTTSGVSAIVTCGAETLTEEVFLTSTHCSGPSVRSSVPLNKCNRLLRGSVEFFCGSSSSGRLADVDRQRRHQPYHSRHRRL
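Detergent-free condition (0.00005% Triton X-100) in acetate buffer pH 5.5 with DTT. 1.5 nM enzyme and compound were pre-mixed 15 min, then 2 uM Z-FR-AMC substrate added; reaction progress from fluorescence change between first and third reads (60 s).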
Marburg entry inh: qHTS for inhibitors of binding or entry into cells for Marburg Virus; 300,000 compounds, 1.8% hits; Marburg virus pseudotyped entry inhibition, cell reporter; control for the full effect not named in the record; about a third of the inactives were read at about 46 µM; AID 540276, 2011; Potency, µM (top dose mostly 37.8 µM), for the others: top-dose activity change, negative = inhibition, usual class: inhibitors; active = well fitted inhibition curve with a large enough effect; inconclusive = small, poorly fitted or top-dose-only effect, or effect the other way; inactive = flat fitted curve, though single readings scatter; tested in HEK293 cells; about a fifth of its hits are not listed in these tables; also: % is scaled to controls: 0 for no effect and ±100 for the full control effect; luciferase read-out
SARS PLpro yeast: qHTS of Yeast-based Assay for SARS-CoV PLP; AID 485353, 2010; S. cerevisiae expressing SARS-CoV PLpro, growth rescue; control for the full effect not named in the record; 330,000 compounds, 0.19% hits; Potency, µM (highest dose often 32.9 µM), for the others: at the highest dose activity, positive = growth rescue; active means well fitted rising curve with a large enough effect; inconclusive means small, poorly fitted or top-dose-only effect; inactive means no such curve, though single readings can be large or run the other way; also: 0% is about no effect; nearly all actives have a fitted effect of over 55% in size; growth read by luminescence after 48 h
Cruzain inh Det: qHTS Assay for Promiscuous and Specific Inhibitors of Cruzain (with detergent) | AID 1478, 2009 | Potency, µM, for the others: max response, negative = inhibition, most hits filed as inhibitors | Cruzipain (Trypanosoma cruzi), P25779 | 200,000 compounds, 0.43% hits | purified cruzain, Z-FR-AMC fluorescence, 0.01% Triton;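 also: plate controls were neutral wells for no effect and buffer without enzyme for full effect; nearly all actives have a fitted effect of over 40% in size; top concentration of the series not given in the record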
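In this qHTS format, compounds are incubated with 1.5 nM cruzain for 15 min at room temperature before 2 uM Z-FR-AMC is added. Release of AMC is followed at 360/450 nm, and progress is taken as the 60 s fluorescence difference.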
RE007 growth inh: qHTS Assay for Inhibitors of the HIV-1 protein Vpr; AID 651644, 2012; S. pombe RE007 Vpr strain, BacTiter-Glo ATP luminescence, 24 h; control for the full effect not named in the record; 360,000 compounds, 0.21% hits; Potency, µM (top dose mostly 92.2 µM), for the others: at the highest dose activity change, negative = less growth; active = well fitted falling curve with a large enough effect; inconclusive = small, poorly fitted or top-dose-only effect; inactive = no such curve, though single readings can be large or run the other way;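 also: % is scaled to controls: 0 for no effect and ±100 for the full control effect; nearly all actives have a fitted effect of over 50% in size; the assay follows cell death caused by Vpr and the record does not say whether a fall means rescue or toxicity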
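Fission yeast strain RE007, carrying one chromosomally integrated HIV-1 vpr copy, was seeded at OD 0.01 in PMG+AL medium with 23 nL pinned compound. After 24 h at 30 °C and 99% humidity, viability was read by BacTiter-Glo luminescence.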
2A StopGo: High Throughput Screening for Foot and Mouth Disease Virus Antivirals | Potency, µM (titrated, usually from 57.9 µM), for inactives: at the highest dose signal change, negative = less light | AID 1159524, 2015 | human cells with a luciferase reporter of 2A StopGo recoding; control for the full effect not named in the record | 410,000 compounds, 1.2% hits; active = well fitted falling curve with a large enough effect; inconclusive = small, poorly fitted or top-dose-only effect; inactive = no such curve, though single readings can be large or run the other way; tested in HEK293T cells; also: % is scaled to controls: 0 for no effect and ±100 for the full control effect; nearly all actives have a fitted effect of over 45% in size; luciferase light after 4 h
An asterisk follows results filed as active; ? = inconclusive; nt = not tested or not shown; & = joins results of further samples; [ ] = remark or other dose. Unless noted, calls follow the shape of the dose curve; as a rule, active = well fitted curve in the direction sought with a large enough effect; inconclusive = small, poorly fitted or top-dose-only effect, or another doubt; inactive = no such curve, though single readings can be large; an effect the other way counts as inactive or inconclusive. Potency is read from the fitted curve at half-maximal effect. Not a hit list; 4.6% or so of the library scored in one or more.

SMILES	Lassa entry inh	NS1 function inh	Cruzain inh noDet	Marburg entry inh	SARS PLpro yeast	Cruzain inh Det	RE007 growth inh	2A StopGo
COc1ccc2occ(C(=O)c3cccs3)c2c1	20%	-91%	-6%	18%	-15%	-3.4%	?	32%[activator]
Cc1cc(C)cc(NC(=O)NCCc2c(C)nn(C)c2C)c1	1%[46.1 µM]	nt	-3%	nt	nt	-1.1%	nt	6%
C=CCON1C(=O)C(=O)N(OCC=C)[C@H]2CCCC[C@H]21	nt	-3%	nt	nt	3%	nt	8%	-16%
C#CC(CC)(CC)NC(=S)Nc1cccc(C(C)=O)c1	-13%	-5%	-8%	-12%	-9%	-4.0%	16%	-23%
Cc1c(NC(=O)c2cc(=O)c3cc(Cl)ccc3o2)c(=O)n(-c2ccccc2)n1C	-6%[46.1 µM]	nt	-12%	-7%[46.1 µM]	nt	-4.3%	nt	-1%
OCCN1CCN(C(=S)c2ccc(-c3ccccc3)cc2)CC1	?	0%	nt	?	-1%	nt	4%	0%
O=C1CC(c2ccccc2)c2c(n3ncnc3[nH]c2=O)N1 (stereo not drawn)	-10%[46.1 µM]	nt	-10%	nt	nt	1.3%	nt	4%
CCOc1ccccc1N(C(=O)CNC(=O)c1ccco1)C(C(=O)NC(C)(C)C)c1ccncc1 (stereo not drawn)	13%	1%	2%	3%&3%	14%	-2.7%	11%	6%
Clc1cccc(NCc2nnc(SCc3ccc(Cl)cc3Cl)o2)c1	-11%	-11%	-7%	?	-46%	-5.4%	-5%	-31%
CC(C)NC(=O)N1CCN(c2ccncc2S(=O)(=O)N2CCCCC2)CC1	nt	7%	nt	nt	-1%	nt	7%	-15%
Cc1ccccc1N1C(S)=C(C#N)C(=O)NC1c1ccco1 (stereo not drawn)	nt	6%	nt	nt	-1%	nt	-6%	-14%
Fc1ccc(CSc2ccc3nnc(-c4ccccn4)n3n2)cc1	nt	nt	nt	-29%[46.1 µM]	-1%	nt	11%	?
COC(=O)CN1C(=S)N(c2ccc(OC)cc2)C(=O)C1CC(=O)Nc1ccc(F)cc1 (stereo not drawn)	nt	nt	nt	-17%[46.1 µM]	0%	nt	-12%	16%
CCCCC1C(C#N)=C(C)NC2=C1C(=O)CC(C)(C)C2 (stereo not drawn)	?	3%	1%	-22%	-5%	3.3%	0%	-20%
COc1cccc(N2CCN(c3ncnc4c3c(-c3ccccc3)cn4-c3ccc(F)cc3)CC2)c1	25%[46.1 µM]	nt	5%	nt	nt	-0.3%	nt	-21%
COC(=O)c1ccc(N)c(N=CC2=C(O)CC(C)(C)CC2=O)c1	10%	26%	1%	0%	25%	-3.5%	-3%	-15%
CCOC(=O)CC(=O)CSc1nc2c(c(-c3cccs3)c1C#N)CCC2	nt	18%	-6%	nt	17%	-7.9%	-5%	10%
CCN(CC)CCn1nc2c3c(cccc3c1=O)-c1ccccc1-2	nt	-4%	nt	nt	-2%	nt	-10%	?
CCOC(=O)c1c(C)[nH]c(C)c1C(=O)COC(=O)c1cc(OC)c(OC)cc1OC	1%[46.1 µM]	-2%	nt	7%[46.1 µM]	-2%	nt	2%	15%
CCOC(=O)N1CCN(C(=O)Nc2cccc3ccccc23)CC1	-10%	-10%	nt	-17%[46.1 µM]	-2%	nt	24%	-13%
COC(=O)c1cc(S(=O)(=O)N2CCCCC2)ccc1N1CCOCC1	8%	nt	nt	-5%	0%	nt	-8%	1%
N#CC(c1ccccc1)c1ccc2c(C(F)(F)F)cc(C(F)(F)F)nc2n1 (stereo not drawn)	11µM*	-72%	-12%	7.1µM*	-2%	-11%	-20%	?
CC(C)c1ccc(-c2c(C#N)c(N)nc(SCC(=O)N3CCCCC3)c2C#N)cc1	-34%	6%	25µM*	?	-4%	3.8%	14%	8%
Cc1ccc(NC(=O)c2ccc(=O)n(CC(=O)Nc3ccccc3)n2)cc1	27%[46.1 µM]	11%	15%	nt	-1%	3.3%	7%	-23%&-1%
CCCn1c(C2CC(=O)N(c3cc(OC)ccc3OC)C2)nc2ccccc21 (stereo not drawn)	nt	-52%	-5%	nt	1%	-0.5%	5%	-4%
CC1CCCCN1S(=O)(=O)c1ccc(C(=O)Nc2nnc(-c3ccccc3Cl)o2)cc1 (stereo not drawn)	?	-22%	-5%	13µM*	-4%	9.3%	-9%	?
O=C(NNC(=O)c1ccc(O)cc1O)c1ccc(-c2ccccc2)cc1	nt	19%	nt	nt	1%	nt	7%	28%
COc1ccc(CCNC(=O)C2CC(=O)N(c3ccc(C(C)(C)C)cc3)C2)cc1OC (stereo not drawn)	nt	2%	nt	nt	0%	nt	-13%	-7%
COc1ccc(OC)c(NC(=S)NCc2cccs2)c1	-17%	-10%	-12%	?	3%	-0.9%	7%	36%[activator]
CN(O)/C=C1\C(=O)Nc2ccccc21	1%	6%	1%	-3%	-2%	-1.1%	-16%	-21%
O=C1NC(=O)C(CC(=O)N(Cc2cccs2)C2(C(=O)NC3CCCC3)CCCCC2)N1 (stereo not drawn)	0%	-6%	14%	?	1%	4.4%	44%	-9%
O=C(Nc1ccc(NC(=O)c2ccc(S(=O)(=O)c3ccccc3)cc2)cc1)c1ccccc1	6%	3%	4µM*	9%	5%	15%	-11%	-4%
Cc1c(C(=O)NNc2c(Cl)cccc2Cl)n(C)oc1=O	nt	-5%	nt	nt	0%	nt	-3%	-16%
CCC1=Nc2cc(C(=O)NCC(C)c3ccccc3)ccc2Sc2ccc(C)cc21 (stereo not drawn)	?	nt	13µM*	?	nt	-1.6%	nt	-21%
COc1cccc(OC)c1C(=O)Nc1ccc(NC(=O)c2ccco2)cc1	0%	2%	-3%	9%	-2%	1.5%	1%	18%
O=C1C(Cc2ccc(Br)cc2)SC(=Nc2ccccc2)N1c1ccccc1 (stereo not drawn)	?	42%	-21%	?	-34%	-4.7%	13%	?
CCc1ccc(NC(=O)CO/N=C(\C)c2cc3ccccc3o2)cc1	0%	-12%	-9%	?	-42%	-9.0%	14%	-13%
CC1CC(C)CN(CCCNC(=O)c2csc3c2CCCC3)C1 (stereo not drawn)	-23%	-2%	5%	?	6%	5.1%	-2%	-16%
Clc1nc(NC2CCCCC2)c2cn[nH]c2n1	18%[46.1 µM]	nt	nt	2%[46.1 µM]	nt	nt	3%	1%
O=C(O)CSCC(=O)N1CCCN(c2nccc(C(F)(F)F)n2)CC1	nt	-1%	nt	nt	1%	nt	-5%	0%
COc1ccc(C(=O)Nc2cccc(-c3ccc4nncn4n3)c2)cc1	-1%	nt	nt	?	3%	nt	-23%	-2%
CC1CCCN(S(=O)(=O)c2ccc(C(=O)Nc3sc4c(c3C(N)=O)CCN(C)C4)cc2)C1 (stereo not drawn)	nt	-7%	nt	nt	4%	nt	3%	0%
CSc1ccccc1C(=O)C1CCCN(C(=O)c2cncs2)C1 (stereo not drawn)	nt	-6%	nt	nt	-2%	nt	-6%	-5%
CCN(Cc1ccccc1)C(=O)c1cc2ccc3cccnc3c2[nH]1	?	nt	4%	nt	nt	-11%	nt	-15%
CC(Sc1nnc2ccccn12)C(=O)Nc1ccc(Cl)cn1 (stereo not drawn)	6%	-1%	-6%	9%	3%	0.9%	6%	0%
CCN1CCN(CC(=O)Nc2ccc3c(c2)OCO3)C(=O)C1=O	nt	?	-6%	nt	-2%	-0.7%	2%	-10%
CCc1ccc(CN(Cc2ccco2)C(=O)COc2ccc(Cl)c(C)c2)cc1	12%[46.1 µM]	nt	-28%	3%[46.1 µM]	nt	-6.9%	nt	-6%
Cc1ccc([N+](=O)[O-])cc1S(=O)(=O)n1ccnc1C	18%	-2%	nt	?	0%	nt	-19%	-7%
Cc1ccc(C2CC(c3cccc(C)c3)n3ncnc3N2)cc1 (stereo not drawn)	nt	-18%	-3%	4%	4%	-0.5%	2%	-21%
CCCCNCc1cc(OC)c(OCC(N)=O)cc1Br	9%	-3%	-11%	3%	9%	-3.0%	5%	-14%
More compounds
SMILES	Lassa entry inh	NS1 function inh	Cruzain inh noDet	Marburg entry inh	SARS PLpro yeast	Cruzain inh Det	RE007 growth inh	2A StopGo
Cc1ccc(OCCCn2c(=O)oc3ccccc32)cc1	10%[46.1 µM]	-5%	nt	?	-2%	nt	3%	21%
Cn1c(=O)c2c(ncn2CC(=O)OCC(=O)Nc2cc(Cl)ccc2Cl)n(C)c1=O	-10%	11%	17%	27%	14%	2.8%	?	-1%
COc1cc(C2=Nc3ccc(Br)cc3C(c3ccccc3)N2CC(=O)NN)cc(OC)c1OC (stereo not drawn)	-7%[46.1 µM]	18%	nt	-22%[46.1 µM]	0%	nt	-9%	-3%
CN(CC(=O)Nc1ccc(N2CCOCC2)cc1)CC(=O)Nc1ccccc1[N+](=O)[O-]	4%	-14%	-2%	-3%	17%	-4.2%	-11%	1%
CCNc1ccc(S(=O)(=O)N(C)C)cc1NCC(=O)Nc1c(F)cccc1F	-1%	6%	2%	?	-4%	-1.5%	3%	33%[activator]
c1ccc2c(c1)ncc1cccn12	13%	-21%	?	1%	1%	-25%	13%	nt
COc1cc(C(=S)NCc2ccccc2)cc(Br)c1O	-2%	0%	nt	28%[46.1 µM]	-1%	nt	38%	10%
Cc1nnc(NC(=O)c2cc3ccccc3o2)s1	10%[46.1 µM]	-60%	nt	11%[46.1 µM]	-7%	nt	-21%	-1%
Cc1ccc(NC(=O)c2ccc(COc3ccccc3)o2)nc1	2%[46.1 µM]	-26%	nt	-3%[46.1 µM]	-5%	nt	-14%	12%
CSCCC(NC(=O)COc1ccccc1)C(=O)N1CCCC(C(F)(F)F)C1 (stereo not drawn)	7%	nt	nt	-14%	-4%	nt	-7%	17%
CCOc1ccc2nc(NC(=O)C3CCCO3)sc2c1 (stereo not drawn)	?	-2%	nt	?	7%	nt	-11%	1%
O=C(Cn1cnnn1)NCc1ccccc1	-4%[46.1 µM]	7%	nt	0%[46.1 µM]	3%	nt	4%	-12%

From PubChem BioAssay
